# RN4220 kill: growth inhibition of S. aureus RN4220, primary screen, OD600; 16 h; inhibition, % (test concentration not listed); 330,000 compounds, 0.33% hits;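 active = z-score of -3 or lower and OD600 up to 0.18 on both plates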;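 note: plate controls were untreated cells for no effect and reference antibiotic for full effect; stock transfer was 100 nL into about 80 µL; one replicate is shown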
# Autofluor counter: flagged as autofluorescent in microsphere protease counterscreen; AID 624483; fluorescence intensity (test concentration not listed); compound autofluorescence counterscreen, microsphere flow cytometry; hits give high values; 360,000 compounds, 3.1% hits;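 active = at least 3 SD above the mean of all compounds, about 16000 in these data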;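 note: 100 nL of 1 mM stock went into each well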
# PrP 5UTR inh: inhibition of PrP 5' UTR reporter expression; cell-based PrP 5' UTR mRNA reporter, plate reader; inhibition, % (test concentration not listed); 340,000 compounds, 0.35% hits; AID 488862, 2010;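 active = every replicate at 50% or more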;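 note: 0 = median of the neutral control wells; tested in H4 reporter cells; numbers are from one replicate; inactives centre near -14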
# ugtP null kill: growth inhibition of ugtP-null S. aureus, primary screen, RN4220 ugtP deletion, OD600; AID 1259309, 2017; growth inhibition, % (no concentration beside the values); 16 h; some inactives read as strong as hits; 330,000 compounds, 0.54% hits;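 active = z-score under -3 and OD600 up to 0.15 on both plates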;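 note: plate controls were untreated wells for no effect and antibiotic for full effect; wells of about 80 µL received 100 nL stock; the first replicate is given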
# * = called active by the depositor; . = no result given. This is a subset (hit frequency here may not be typical).
(1) COc1ccc(NC(=O)N(C)C[C@H]2Oc3c(NS(=O)(=O)c4cccs4)cccc3C(=O)N([C@H](C)CO)C[C@@H]2C)cc1
(2) CCOc1cc(C(=O)OC(C(=O)NC(=O)NC)c2ccccc2)ccc1OCC(=O)N1CCOCC1 (configuration not stated)
(3) O=C1NC(=O)C(=CCc2ccccc2)C(=O)N1
(4) O=S(=O)(CC(O)(c1ccccc1)c1ccccc1)CC(O)(c1ccccc1)c1ccccc1
(5) O=C(Nc1cccc(C(=O)N2CCCCC2)c1)C1CCCCC1
(6) Cc1cccc(CN2CCC(CNC(=O)C3CCCN(S(=O)(=O)c4cnc[nH]4)C3)CC2)c1 (configuration not stated)

Compound	1	2	3	4	5	6
RN4220 kill	.	.	.	.	.	.
Autofluor counter	4133	3363	4129	3827	3501	7927
PrP 5UTR inh	-27	-5	-8	-15	-17	3
ugtP null kill	.	.	.	.	.	.

# Single records (already shown):
# Entry for O=C(Nc1cccc(C(=O)N2CCCCC2)c1)C1CCCCC1 : RN4220 kill: .; Autofluor counter: 3501; PrP 5UTR inh: -17; ugtP null kill: .
# Entry for CCOc1cc(C(=O)OC(C(=O)NC(=O)NC)c2ccccc2)ccc1OCC(=O)N1CCOCC1 (configuration not stated) : RN4220 kill: .; Autofluor counter: 3363; PrP 5UTR inh: -5; ugtP null kill: .

# New compounds follow:
(7) C=CC[C@@H](CC(=O)N(CCO)Cc1ccccc1)C(=O)N[C@H](COC(=O)[C@@H](CC=C)Cc1ccc(F)cc1)Cc1ccccc1
(8) c1cc2c(cc1NC1=NCCO1)CCCC2
(9) CC1=CC(=O)[C@@H](OC(=O)Nc2ccc(C)cc2)[C@@H](c2ccccc2Br)N1C
(10) CN(C)CCCn1c2c3ccccc3ccc2c2oc(=O)c3ccccc3c21
(11) Cc1ccc(C(=O)Nc2ccccc2C(=O)NCc2ccco2)cc1
(12) CC1(C)CC(=O)C2=C(C1)N(c1ccccc1)C(=O)C(C(=O)OCc1ccccc1)C2 (configuration not stated)

Compound	7	8	9	10	11	12
RN4220 kill	.	.	.	.	.	.
Autofluor counter	2881	2895	2832	4270	3264	3452
PrP 5UTR inh	-17	-23	-12	-5	-13	-24
ugtP null kill	.	.	.	.	.	.

(13) COCCN(C(=O)CSc1nnc(-c2ccncc2)n1C)c1c(N)n(CC(C)C)c(=O)[nH]c1=O
(14) CCCCN1C(=N)N([C@@H](C)CN2CCC[C@H]2CN2C(N)=NC[C@@H]2Cc2ccccc2)C[C@H]1Cc1ccccc1
(15) CN(C(=O)COC(=O)Cc1c(Cl)cccc1Cl)C1CCS(=O)(=O)C1 (configuration not stated)
(16) Cc1ccc(S(=O)(=O)N2Cc3cnnn3-c3ccccc3C2C#N)cc1 (configuration not stated)
(17) O=C1CCC[C@@H]2C[C@@]3(C[C@@H]4CCN1[C@H]24)Nc1cc(Cl)ccc1NC3=NCc1ccccc1
(18) CC(C)(C)OC(=O)NCCCCCNC(=O)c1[nH]cnc1C(=O)N[C@@H](Cc1ccccc1)C(=O)OC(C)(C)C

Compound	13	14	15	16	17	18
RN4220 kill	.	.	.	.	.	.
Autofluor counter	5149	3195	4001	2979	4073	3682
PrP 5UTR inh	-21	-14	-13	-4	-44	-18
ugtP null kill	.	.	.	.	.	.

(19) COc1cccc2c1C(=N)c1c(O)c3c(c(O)c1C2=O)CC(O)(C(C)=O)CC3OC1CC(N)C(O)C(C)O1 (configuration not stated)
(20) C/C(=N\NC(=O)c1ccc(Br)o1)c1cc2c(cc1NC(=O)CCC(=O)O)OCO2
(21) O=S(=O)(NC1CC1)c1ccc(Br)cc1N1CCC[C@H]1CO
(22) O=C(CN1C(=O)c2ccccc2C1=O)NC(Cc1ccccc1)C(=O)O (configuration not stated)
(23) C/C(C/C(C)=C1/SC(=S)NC1=O)=C1\SC(=S)NC1=O
(24) COc1cc2c3c(n(C)c(=O)c2cc1OC)-c1cc2c(cc1C3=O)OCO2

Compound	19	20	21	22	23	24
RN4220 kill	.	.	.	.	.	.
Autofluor counter	2411	6312	4005	4151	4207	3755
PrP 5UTR inh	22	-14	-7	-17	-33	50
ugtP null kill	.	.	.	.	.	.

# Brought forward from above: four compounds, then new ones.
(21) O=S(=O)(NC1CC1)c1ccc(Br)cc1N1CCC[C@H]1CO
(22) O=C(CN1C(=O)c2ccccc2C1=O)NC(Cc1ccccc1)C(=O)O (configuration not stated)
(23) C/C(C/C(C)=C1/SC(=S)NC1=O)=C1\SC(=S)NC1=O
(24) COc1cc2c3c(n(C)c(=O)c2cc1OC)-c1cc2c(cc1C3=O)OCO2
(25) COc1ccc2c(c1)OC[C@H]1[C@H]2N2C(=O)c3cc(Cl)ccc3NC(=O)[C@@]2(C)[C@H]1c1ccccc1
(26) CNC[C@@H]1Oc2ccc(NC(=O)Nc3c(C)noc3C)cc2CC(=O)N([C@H](C)CO)C[C@H]1C
(27) COc1ccc(Br)cc1C=NNC(=O)CNC(=O)/C=C/c1ccccc1OC
(28) CCC1SC(=NS(=O)(=O)c2cccs2)N(C2CCCCC2)C1=O (configuration not stated)
(29) O=C(ON=C1CCCc2occc21)c1ccccc1
(30) COc1ccc(S(=O)(=O)NN=Cc2ccc(OC)c(COc3ccc(C)cc3[N+](=O)[O-])c2)cc1

Compound	21	22	23	24	25	26	27	28	29	30
RN4220 kill	.	.	.	.	.	.	-3.4	4.3	3.4	5.6
Autofluor counter	4005	4151	4207	3755	4249	2891	.	.	.	.
PrP 5UTR inh	-7	-17	-33	50	-20	-25	.	.	.	.
ugtP null kill	.	.	.	.	.	.	-13	7	2	10

(31) COc1ccc(C(=NO)c2ncc(C(F)(F)F)cc2Cl)cc1
(32) COc1cc(C=NNC(=O)c2ccc(=O)[nH]n2)cc(OC)c1OC
(33) CC[C@H](C)C=C(C)/C=C/C1=CC2=C(Cl)C(=O)[C@@](C)(OC(C)=O)C(=O)C2=CO1
(34) COc1ccc(C=NNC(=O)c2cccc(Br)c2)cc1Cn1cc(Cl)cn1
(35) CC(=NO)c1ccccc1C(=O)O
(36) O=C1C2C3C=CC(C3)C2C(=O)N1N=Cc1cn(Cc2ccccc2)c2ccccc12 (configuration not stated)

Compound	31	32	33	34	35	36
RN4220 kill	6.6	-2.4	5.4	1.6	-0.3	-1.1
Autofluor counter	.	.	.	.	.	.
PrP 5UTR inh	.	.	.	.	.	.
ugtP null kill	-1	0	-7	-17	1	8

(37) Clc1ssc(=Nc2ccccn2)c1Cl
(38) O=S(=O)(NN=C1CC(c2ccccc2)Oc2ccccc21)c1ccccc1 (configuration not stated)
(39) Cn1c(Cl)c(C=NOC(=O)c2ccccc2Cl)c2ccccc21
(40) CCC(=NO)c1ccc(OC)c(OC)c1
(41) CC(C(=O)NN=Cc1ccc(N(C)C)c(Br)c1)N(c1ccccc1)S(C)(=O)=O (configuration not stated)
(42) COc1cc(C=NNc2nn3cnnc3c3ccccc23)cc(OC)c1OC

Compound	37	38	39	40	41	42
RN4220 kill	8.0	-3.2	2.1	0.1	-1.8	3.4
Autofluor counter	.	.	.	.	.	.
PrP 5UTR inh	.	.	.	.	.	.
ugtP null kill	-9	22	25	-4	0	-2

(43) Cc1nc2ccccn2c1/C(O)=C1\C(=O)C(=O)N(CCCN(C)C)C1c1ccc(F)cc1 (configuration not stated)
(44) Cc1nn(-c2ccccc2)c(C)c1C=NNC(=O)c1cc(C(C)(C)C)[nH]n1
(45) Cc1nnc(C)n1N=Cc1ccc(-c2ccccc2)cc1
(46) CC1(C)C(c2ccc(Cl)cc2)=[N+]([O-])C2(CCCCC2=NO)N1O (configuration not stated)
(47) CC1(C)CC(=O)C2=C(C1)N=c1sc(=Cc3ccc(F)c(F)c3)c(=O)n1C2c1ccc(F)cc1 (configuration not stated)
(48) C=CCn1c(CNc2ccc(C)cc2)nnc1SCC(=O)NN=Cc1ccc(O)cc1

Compound	43	44	45	46	47	48
RN4220 kill	3.2	6.8	-0.3	0.4	-11	-5.0
Autofluor counter	.	.	.	.	.	.
PrP 5UTR inh	.	.	.	.	.	.
ugtP null kill	9	-6	7	-1	-1	-3

(49) Cc1ccc(S(=O)(=O)NN=Cc2cc(Br)c(C)o2)cc1
(50) CCN(CC)S(=O)(=O)c1cccc(C(=O)NN=Cc2ccc(O)c(O)c2O)c1
(51) Oc1[nH]c2ccccc2c1C=Nc1nccs1
(52) COc1ccc(Br)cc1C=NNC(=O)c1ccc(COc2ccc3c(c2)CCC3)o1
(53) CON=CNC(=O)c1ccc([N+](=O)[O-])c(CS(=O)(=O)c2ccc(Cl)cc2)c1
(54) Cc1ccc(COc2ccc(Br)cc2C=NO)cc1

Compound	49	50	51	52	53	54
RN4220 kill	3.6	20	8.7	-3.1	0.3	-9.3
Autofluor counter	.	.	.	.	.	.
PrP 5UTR inh	.	.	.	.	.	.
ugtP null kill	2	-6	-1	0	-4	100*

(55) Cc1ccc(C=NNC(=O)c2ccoc2C)o1
(56) CC(=NO)c1ccc2[nH]ccc2c1
(57) O=S(=O)(c1cnccc1N1CCN(N=Cc2ccccc2)CC1)N1CCCCC1
(58) O=C1C2C3C=CC(C4CC34)C2C(=O)N1N=Cc1cccs1 (configuration not stated)
(59) CCc1cc(C(Cc2ccc3ccccc3n2)=NO)c(O)cc1O
(60) N#CC(=C(O)c1ccco1)c1nc2ccccc2s1

Compound	55	56	57	58	59	60
RN4220 kill	6.5	1.6	4.8	5.1	-11	93
Autofluor counter	.	.	.	.	.	.
PrP 5UTR inh	.	.	.	.	.	.
ugtP null kill	1	6	9	5	-15	73

(61) COc1ccc(NC(=S)NN=C2CCCc3c(C)cc(C)cc32)cc1
(62) COC(=O)c1cc(NC(=O)c2ccccc2)c(=O)oc1CC=NOCc1ccc(Cl)cc1Cl
(63) Cc1cccc(N(CC(=O)NN=Cc2cc([N+](=O)[O-])ccc2Cl)S(C)(=O)=O)c1C
(64) COc1cc(C=NNC(=O)c2c(-c3ccccc3)noc2C)ccc1O
(65) COc1cc(C=NO)cc(Br)c1OCc1cccc(Cl)c1
(66) Cc1ccccc1C=NNC(=O)c1csnn1

Compound	61	62	63	64	65	66
RN4220 kill	1.5	-1.6	-1.9	0.4	-1.7	5.6
Autofluor counter	.	.	.	.	.	.
PrP 5UTR inh	.	.	.	.	.	.
ugtP null kill	1	-3	-2	-7	76	-3

(67) Cc1nn(-c2ccccc2)c(C)c1C=NNC(=O)c1cc(C2CC2)[nH]n1
(68) COc1ccc(/C=C2/S/C(=N/N=C3CC4CCC3(C)C4(C)C)NC2=O)cc1 (configuration not stated)
(69) CCOC(=O)c1ccc2c(c1)C1C=CCC1C(C(=O)O)N2 (configuration not stated)
(70) CC(=NOC(=O)c1cccc(Cl)c1)c1sc(C)nc1C
(71) O=C(NN=Cc1ccc(COc2ccc([N+](=O)[O-])cc2)o1)c1ccc(Cl)cc1
(72) CC1C(=NO)C(CN(C)C)C2CC1C2(C)C (configuration not stated)

Compound	67	68	69	70	71	72
RN4220 kill	-1.8	7.3	13	-2.0	-5.7	-3.3
Autofluor counter	.	.	.	.	.	.
PrP 5UTR inh	.	.	.	.	.	.
ugtP null kill	-1	-14	-12	1	-19	-1

(73) Cc1[nH]n(-c2ccc(Cl)cc2)c(=O)c1C=Nn1c(C)nc2ccccc2c1=O
(74) N#Cc1ccc(OCC(=O)NN=C2CCc3ccccc32)cc1
(75) CCOC(=O)N=C(NC(=O)Nc1ccc(C(=O)OCC)cc1)OC
(76) CCc1noc2c1C(=NO)CC(c1ccccc1)C2 (configuration not stated)
(77) CCOc1ccc(C2C(C(=O)c3cccs3)=C(O)C(=O)N2CCCn2ccnc2)cc1 (configuration not stated)
(78) COc1ccc(/C=C/C(=O)NCC(=O)NN=Cc2cc(Br)ccc2OCc2ccccc2)cc1

Compound	73	74	75	76	77	78
RN4220 kill	24	1.1	0.9	11	1.1	-6.1
Autofluor counter	.	.	.	.	.	.
PrP 5UTR inh	.	.	.	.	.	.
ugtP null kill	8	-1	1	10	3	-13

(79) Cc1ccc(-n2c(SCC(=O)NN=Cc3ccc(C)s3)nnc2-c2ccccc2)cc1
(80) O=[N+]([O-])c1ccc(Cl)c(C=NN2CCN(Cc3ccccc3Cl)CC2)c1
(81) CC1CCCC=CC(=O)c2c(O)cc(O)cc2CC(=O)O1 (configuration not stated)
(82) COc1cc(C=NNC(=O)c2ccc(Cn3nc([N+](=O)[O-])c(Cl)c3C)o2)ccc1O
(83) CCCCn1c(N=Cc2cc(OC)ccc2O)nc2ccccc21
(84) C=CCn1c(-c2ccc(OC)c(OC)c2)csc1=Nc1ccccn1
(85) COc1cccc(-c2cc(C(=O)NN=Cc3ccc(OC)c(COC(C)=O)c3)c3ccccc3n2)c1

Compound	79	80	81	82	83	84	85
RN4220 kill	4.0	-0.1	6.2	0.3	2.6	-4.2	-4.3
Autofluor counter	.	.	.	.	.	.	.
PrP 5UTR inh	.	.	.	.	.	.	.
ugtP null kill	-2	1	4	84	3	6	-13

# Bioassay records: PubChem BioAssay, several laboratories
